Screening results: PubChem, National Center for Advancing Translational Sciences (NCATS)
Rango complex inh – Rango-importin beta binding inhibition | Q14974 | Rango CFP/YFP FRET sensor + importin beta, 45 min | Potency, µM (titrated, usually from 92.2 µM), inactives show at the highest dose inhibition of complex formation | 0.031% of 340,000 active | AID 540263; active = rising FRET ratio curve, often small or poorly fitted; inconclusive = mostly compound fluorescence or quenching in the first reads; inactive = flat curves in all reads;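 also: potency is read from the fitted curve at half-maximal effect; 0% = DMSO wells and 100% = buffer wells lacking importin beta; nearly all actives have a fitted effect of over 15% in size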
Target sequence (Q14974 whole entry, looked up): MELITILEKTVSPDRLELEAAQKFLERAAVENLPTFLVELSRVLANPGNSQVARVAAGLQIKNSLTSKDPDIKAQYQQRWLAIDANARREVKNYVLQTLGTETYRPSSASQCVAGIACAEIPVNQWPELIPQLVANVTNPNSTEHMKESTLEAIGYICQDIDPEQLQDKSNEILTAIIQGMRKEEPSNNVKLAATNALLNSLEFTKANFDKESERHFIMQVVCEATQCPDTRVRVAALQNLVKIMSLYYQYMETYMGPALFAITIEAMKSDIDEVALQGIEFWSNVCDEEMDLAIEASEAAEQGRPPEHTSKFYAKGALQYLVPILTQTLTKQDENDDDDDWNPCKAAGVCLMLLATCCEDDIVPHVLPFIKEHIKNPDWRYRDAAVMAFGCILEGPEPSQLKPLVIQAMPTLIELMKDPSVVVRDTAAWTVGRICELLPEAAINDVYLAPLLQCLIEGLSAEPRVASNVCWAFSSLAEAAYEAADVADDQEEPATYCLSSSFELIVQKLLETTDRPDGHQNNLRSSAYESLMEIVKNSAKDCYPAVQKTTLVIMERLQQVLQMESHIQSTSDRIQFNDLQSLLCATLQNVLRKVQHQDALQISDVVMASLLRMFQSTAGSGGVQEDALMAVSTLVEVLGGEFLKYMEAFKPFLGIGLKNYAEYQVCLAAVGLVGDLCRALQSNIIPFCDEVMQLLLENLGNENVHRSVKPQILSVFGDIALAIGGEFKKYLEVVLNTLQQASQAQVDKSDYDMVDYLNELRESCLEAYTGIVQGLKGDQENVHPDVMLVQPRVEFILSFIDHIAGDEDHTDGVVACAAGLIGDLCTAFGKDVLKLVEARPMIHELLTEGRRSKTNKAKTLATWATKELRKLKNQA
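FRET biosensor Rango (snurportin 1 IBB between N-terminal EYFP and C-terminal Cerulean), 50 nM in PBS/1 mM DTT/0.02% Tween-20/0.1% BSA, preincubated 5 min RT with compound; 0.125 microM importin beta added, 45 min RT, CFP/YFP FRET ratio read.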
miR-21 reporter – raises the signal of a miR-21 reporter; Potency, µM (top dose mostly 38.3 µM), for inactives: at the highest dose reporter change, positive = more light; 340,000 tested, under 10 active; AID 2288; HeLa miR-21 FLuc reporter, luciferase, 48 h; active = well fitted rising curve with a large enough effect; inconclusive = small, poorly fitted or top-dose-only effect; inactive = no such curve, though single readings can be large or run the other way;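 also: % of control where 0% means no effect; miR-21 action dims this reporter so a rising signal means less miR-21 action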
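Using DMEM plus 10% FBS, HeLa miR-21-FLuc cells are incubated with test compounds (final up to about 40uM) for 48 hours; firefly luciferase signal is then imaged following reagent-mediated lysis.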
GLA inh pH 4.5 – inhibitors of human alpha-galactosidase A at pH 4.5. activity change, negative = inhibition, % at 105 µM. 230,000 tested, under 10 active. purified enzyme, 4-MU-alpha-Gal fluorescence, pH 4.5. P06280; inconclusive = small, poorly fitted or top-dose-only inhibition, or a rising curve; inactive = flat fitted curve, though single readings scatter; no compound was filed as active;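 also: 0% = full activity with enzyme and -100% = basal without enzyme; dose as in the result columns while the protocol names 77 µM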
Rango release inh – inhibition of RanGTP-driven Rango-importin beta dissociation | Potency, µM (titrated, usually from 46.1 µM), without a hit: at the highest dose activity change, negative = inhibition | O95149+P62826 | Biochemical FRET Rango-importin beta, RanGTP-induced dissociation | 0.071% of 340,000 active; active means falling FRET ratio curve, often poorly fitted, with flat reads before Ran was added; inconclusive means other falling curves, or compound fluorescence or quenching; inactive means flat or rising ratio curve;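 also: potency is read from the fitted curve at half-maximal effect; % of control where 0% means no effect; nearly all actives have a fitted effect of over 45% in size; -100% = wells without RanGTP and RCC1; the record marks most hits as doubtful in a second field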
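Compounds preincubate 5 min with complex of recombinant Rango and importin beta in PBS with 1 mM DTT. Ran (0.6 uM) loaded with 2 mM GTP plus 0.2 uM RCC1 starts dissociation; FRET is recorded 45 min later.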
An asterisk follows results filed as active; ? = inconclusive; · = not tested or not shown. The list is partial; the hit share may differ from the screen's.

Values run as follows: Rango complex inh | miR-21 reporter | GLA inh pH 4.5 | Rango release inh
- CCOC(=O)c1cnn(-c2ccccc2)c1-n1cccc1C(=O)C(=O)N(C)C
    -1.3% | -1% | -1 | -1%
- CCOc1ccc2c(c1)C(=O)c1cc(OCC(=O)O)ccc1-2
    1.2% | -1% | -15 | 15%
- NC(=O)N/N=C/c1ccc(-c2ccc(S(=O)(=O)Nc3ncccn3)cc2)o1
    0.4% | · | · | -1%
- CN1CCN(c2nc(Nc3ccc(F)cc3)nc(Nc3ccc(F)cc3)n2)CC1
    0.0% | ? | · | 1%
- N#CC1=C(N)OC2=C(C(=O)CC(c3ccco3)C2)C1c1ccc(OCc2c(F)cccc2Cl)cc1 (centres undefined)
    4.6% | -16% | ? | -1%
- COc1ccc(OC)c(S(=O)(=O)N2CCC(C(=O)NCc3ccccc3)CC2)c1
    0.2% | -11% | -3 | -4%
- C1CCN(c2nc3nonc3nc2N2CCCC2)C1
    -5.6% | 0% | 4 | 9%
- Cc1ccc(Cn2c(CN3CC(C)OC(C)C3)nc3c2c(=O)n(C)c(=O)n3C)cc1 (centres undefined)
    0.0% | -2% | -2 | 0%
- CC1CCCCC1NC(=O)CCS(=O)(=O)c1cccc2nonc12 (centres undefined)
    -0.1% | -6% | 0 | -4%
- CC(C)(C)C1CCc2sc(C(=O)NNC(=O)CCl)cc2C1 (centres undefined)
    -2.1% | 11% | 11 | 4%
- Cc1nn(C)c(C(=O)N/N=C/c2ccc(-c3ccccc3)cc2)c1Cl
    1.8% | -5% | · | 13%
- CC(C)(CN=C1NS(=O)(=O)c2ccccc21)CNC(=O)c1ccccc1
    -0.4% | 7% | · | -10%
- COc1ccc(-c2cn(Cc3cccc(OC)c3)nn2)cc1
    -3.9% | -26% | · | 1%
- CN(C(=O)c1cccc(Br)c1)C1CCS(=O)(=O)C1 (centres undefined)
    -2.0% | · | · | 15%
- COc1ccc(COC(=O)c2ccc(Cl)c(S(=O)(=O)N3CC(C)OC(C)C3)c2)cc1 (centres undefined)
    -1.4% | · | · | 15%
- Cc1ccc(C(=O)Nc2sc(C)c(C)c2C(=O)c2ccccc2)cc1
    6.1% | -14% | -5 | 0%
- Cc1ccccc1C(=O)N1c2ccccc2OCC1C(C)(C)C (centres undefined)
    2.1% | 3% | · | -12%
- CCn1c(SCc2nc3ccccc3[nH]2)nnc1-c1cnccn1
    -1.3% | -43% | 5 | -1%
- CC1(C)C(=O)OC(c2cccn2-c2ccc([N+](=O)[O-])cc2)C(C)(C)C1=O (centres undefined)
    0.6% | -4% | 0 | 4%
- Cc1cccc2nc(COc3ccc4ccccc4c3Br)cn12
    0.2% | -78% | -9 | 3%
- O=C(/C=C/c1ccccc1)NCc1ccco1
    0.6% | -43% | 3 | -2%
- CC(=O)c1ccc(-n2c(=O)[nH]c(=O)c3c(N)c(C(=O)c4ccc(Cl)cc4)sc32)cc1
    ? | 16% | -7 | -6%
- CC(C)C[C@H](NC(=O)N1CCn2c1nc1ccccc12)C(=O)NCCc1ccccc1
    -1.9% | 4% | · | 4%
- Cc1ccc(CNC(=O)c2ccc3c(=O)n(CC4CCCO4)c(=S)[nH]c3c2)cc1 (centres undefined)
    -0.3% | 1% | 6 | 4%
- O=c1cc(CCl)nc2sc3ccccc3n12
    -4.3% | 1% | 6 | 2%
- CC(C)(C)c1ccc(OCCCn2ccnc2)cc1
    -0.4% | -1% | · | 1%
- CCOc1ccc(NS(=O)(=O)c2ccc(NC(C)=O)c(OC)c2)cc1
    -2.2% | -1% | 4 | 11%
- O=C(CCc1ccncc1)NC1CCCc2c1cnn2-c1ccc(F)cc1F (centres undefined)
    1.4% | 21% | · | 14%
- COc1cccc(/C(O)=C2/C(=O)C(=O)N(CCN(C)C)C2c2ccc(Br)cc2)c1 (centres undefined)
    -2.0% | -2% | 6 | -3%
- COc1ccc(OC)c(S(=O)(=O)Nc2ccccc2SC)c1
    3.5% | -9% | 5 | -13%

Next section:
Values run as follows: Rango complex inh | miR-21 reporter | GLA inh pH 4.5 | Rango release inh
- O=S(=O)(NCC(O)COCc1ccco1)c1cccs1 (centres undefined)
    -2.7% | -2% | -3 | ?
- Cc1cc(=O)[nH]c(SCC(=O)N2CCN(C(c3ccccc3)c3ccccc3)CC2)n1
    0.2% | -4% | 2 | -1%
- Cc1cc(NC(=O)CCC(=O)N(Cc2ccco2)C(C)(C)C(=O)NC2CCCCC2)no1
    4.8% | -6% | 4 | 5%
- O=C(COc1ccc(Cl)cc1)Nc1cnn(Cc2c(Cl)cccc2Cl)c1
    1.1% | -6% | 1 | -6%
- COc1ccc(C(=O)Nc2ccccc2N2CCN(C(=O)C(C)C)CC2)cc1Cl
    -1.9% | -2% | -3 | -1%
- CC(C)(C)c1ccc(Cn2nnc3c(=O)[nH]c(C4CCN(C(=O)Cc5cccs5)CC4)nc32)cc1
    -7.7% | -3% | -2 | -4%
- CC(=O)O[C@@H]1[C@@]2(C)O[C@H]2CC[C@]23O[C@H]2[C@H](OC3=O)C2=C(C)C(=O)O[C@@]21O
    6.2% | -9% | 0 | 0%
- COc1ccc(CNC(=O)C(C)OC(=O)CN2C(=O)COc3ccccc32)cc1 (centres undefined)
    -1.5% | -3% | · | -4%
- COc1ccccc1NS(=O)(=O)c1cccc(C(=O)NN=C2CCCC2)c1
    -2.9% | -1% | 12 | -9%
- Cc1ccc(S(=O)(=O)N(C)C)cc1NC(=O)COC(=O)Cc1n[nH]c(=O)c2ccccc12
    -1.7% | 0% | · | -14%
- Cc1ccc(CNS(=O)(=O)CCNC(=O)c2ccccc2)cc1
    1.6% | · | · | 1%
- CC(NC(=O)C1C(=O)N(CCO)C2(C)CC1c1ccccc1O2)c1ccccc1 (centres undefined)
    -1.6% | -2% | 4 | 15%
- O=C(N/N=C/c1ccc(OC(=O)c2ccccc2Cl)cc1)c1cc(O)cc(O)c1
    0.4% | -7% | · | -10%
- COc1ccc(S(=O)(=O)Nc2ccccn2)cc1OC
    -0.1% | -12% | -5 | -1%
- COc1ccc(/C=C/C(=O)c2cc(F)ccc2OC(=O)c2ccccc2C)cc1OC
    ? | ? | -5 | ?
- CCOC(=O)c1cc(CC)sc1NC(=O)CN1CCN(C(=O)c2ccco2)CC1
    -2.2% | -7% | · | 1%
- CC(=O)Nc1ccc(S(=O)(=O)N2CCC(NC(=O)c3ccco3)CC2)cc1
    -0.6% | -6% | 0 | -9%
- COc1cccc(N2[C@@H](CC(C)=O)c3cc(C(F)(F)F)ccc3S2(=O)=O)c1
    -4.7% | · | · | -16%
- Cc1ccc(CN2CCN(/N=C/C(Br)=C\c3ccccc3)CC2)cc1
    -2.7% | 3% | -13 | 13%
- Cc1ccc(-c2cccc(OC(=O)c3ccccc3F)c2)cc1
    0.5% | -4% | 4 | -11%
- CCc1ccc(CNC(=O)CCn2ccc3cc(S(=O)(=O)N4CCCC4)ccc32)cc1
    -4.5% | 10% | · | 12%
- S=c1[nH]nc(-c2ccncc2)n1/N=C/C=C/c1ccco1
    -1.3% | -1% | 4 | 11%
- O=C(COc1ccc2ccc(=O)oc2c1)Nc1ccc2c(c1)OCCO2
    1.0% | -22% | 8 | 0%
- COc1cc(C(=O)OCc2cc(=O)n3ccsc3n2)ccc1OC(C)C
    -6.2% | · | · | -4%
- N/C(=N\c1nc(CSc2ccc(Cl)cc2)cc(=O)[nH]1)Nc1cccc2ccccc12
    -1.3% | -3% | 4 | -3%
- COc1ccc(Cn2c(=S)[nH]c3ccccc32)cc1
    -2.2% | -31% | 7 | -3%
- O=C(Nc1cccnc1)c1cccc(-c2cc3ccccc3oc2=O)c1
    ? | -13% | 0 | 6%
- COc1ccc(Cl)cc1C(=O)Nc1ccc2nc3n(c(=O)c2c1)CCCC3
    3.2% | -13% | · | 2%
- COC(=O)C1CCN(C(=O)c2cc3ccccc3oc2=O)CC1
    5.6% | -39% | 0 | 0%
- Cc1cccc(C(=O)NCCCn2ccnc2)c1C
    -3.9% | -2% | · | -2%

Going on with the list.
Values run as follows: Rango complex inh | miR-21 reporter | GLA inh pH 4.5 | Rango release inh
- CC1(C)OC(=O)C(=CNc2ccc(F)cc2)C(=O)O1
    3.3% | -10% | 0 | 7%
- Cc1ccc(-c2nc3c(c(=O)[nH]c(=O)n3Cc3ccccc3)n2C)o1
    ? | -13% | 3 | -24%
- Cc1ccc(C(=O)NC(NC(=S)Nc2ccc(S(N)(=O)=O)cc2)C(Cl)(Cl)Cl)cc1 (centres undefined)
    -4.8% | -3% | -5 | 7%
- COC(=O)CSc1nc2ncccc2[nH]1
    -3.3% | 0% | 7 | 9%
- COC(=O)c1nnn(-c2cccc(Cl)c2)c1C(=O)OC
    -1.6% | -9% | 5 | -3%
- COC(=O)Cn1c(CN2CCc3ccccc3C2)nc2c1c(=O)n(C)c(=O)n2C
    -2.6% | 3% | 5 | -10%
- CCC1(C(=O)O)NC(c2cccc(OC)c2O)C2C(=O)N(c3ccccc3)C(=O)C21 (centres undefined)
    7.0% | -9% | 0 | 2%
- OC(COc1ccc(C2C=CCC2)cc1)CN1CCCCC1 (centres undefined)
    0.7% | -13% | -5 | 3%
- O=C(O)CC1(CC(=O)NCc2ccc(-c3cccs3)cc2)CCCCC1
    -4.3% | -3% | -1 | 18%
- COc1ccc(N=C2CCS(=O)(=O)c3sccc32)cc1
    2.4% | -44% | 10 | -2%
- COc1ccc(C(=O)Nc2ccccc2C(=O)NCCN2CCOCC2)cc1
    -0.4% | -24% | 12 | 8%
- COc1ccc(-c2cc(C(F)(F)F)c(C#N)c(SCC(=O)O)n2)cc1
    4.9% | -1% | -2 | -8%
- O=[N+]([O-])c1ccc(CP(=O)(c2ccccc2)c2ccccc2)cc1
    -0.8% | 2% | · | -8%
- Cc1cc(C)n(CCc2nc(-c3cccs3)cs2)n1
    2.9% | -39% | 0 | -7%
- Cc1ccc(C)c(OCCCC(=O)NC2CCCCC2)c1
    -1.7% | -8% | · | -13%
- COc1ccc(NC(=O)N(Cc2cc3cc(OC)c(OC)cc3[nH]c2=O)CC2CCCO2)cc1 (centres undefined)
    -2.4% | -27% | 4 | -1%
- CCS(=O)(=O)c1ccc(O)c(NC(=O)COc2ccccc2)c1
    -1.0% | -7% | -15 | 1%
- O=C(c1cc(-c2ccccc2)nc2ccccc12)N1CCN(C2CCS(=O)(=O)C2)CC1 (centres undefined)
    2.9% | · | · | -10%
- CCN(CC(=O)Nc1ccccc1C(F)(F)F)C(=O)/C=C/c1ccc(Cl)c([N+](=O)[O-])c1
    1.1% | · | · | -6%
- Cn1c(C(=O)N2CCN(C3CCCCC3)CC2)cc2c(=O)n(C)c3ccccc3c21
    · | 3% | 0 | ·
- CC(C)CCSc1nnc(Cn2c(=O)sc3ccccc32)n1C
    -2.5% | -4% | -4 | -13%
- CC(=O)Nc1sc(C)c(C)c1CN1CCN(Cc2ccccc2)CC1
    -3.0% | 1% | 2 | 5%
- O=C(CCC(=O)c1ccc(Oc2ccccc2)cc1)Nc1ccc(C(=O)O)cc1
    -3.5% | -3% | · | -4%
- CCN1CCC(CNCc2cn(-c3ccc(OC)cc3)nc2-c2ccccc2Cl)C1 (centres undefined)
    -0.6% | -15% | 1 | -7%
- COc1ccc(OC)c(CNC(=O)C2CCC(=O)N(CCCN3CCCC3=O)C2)c1 (centres undefined)
    -1.9% | -7% | · | -3%
- O=C(Nc1ccc2c(c1)OCO2)c1ccc(Cl)cc1Cl
    -1.6% | 0% | · | -12%

Profiles as entered above. Screens in order: Rango complex inh, miR-21 reporter, GLA inh pH 4.5, Rango release inh
Shown for O=C(N/N=C/c1ccc(OC(=O)c2ccccc2Cl)cc1)c1cc(O)cc(O)c1 : 0.4%, -7%, ·, -10%
Shown for COc1ccc(/C=C/C(=O)c2cc(F)ccc2OC(=O)c2ccccc2C)cc1OC : ?, ?, -5, ?
Shown for NC(=O)N/N=C/c1ccc(-c2ccc(S(=O)(=O)Nc3ncccn3)cc2)o1 : 0.4%, ·, ·, -1%
